YopH inh – YopH (Yersinia) phosphatase inhibition; fluorescence Ex485/Em525; inhibition, %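 (about 10 µM by stock and volumes)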; 140,000 tested, 0.16% active;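 active means inhibition of 50% or more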;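 further: controls were vehicle for no effect and minimum signal wells for full effect; inactives centre near -20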
RecA intein inh – blocks M. tuberculosis RecA intein splicing. 290,000 tested, 0.75% active. cell-free RecA intein splicing, fluorescence. P9WHJ3. inhibition, %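 (about 9 µM by stock and volumes)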. AID 2221; in the data active means inhibition above about 30%; inconclusive means no clear call, values can overlap the other calls;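 further: 0% = vehicle wells and 100% = reference inhibitor control wells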
Target sequence (P9WHJ3 whole entry, looked up): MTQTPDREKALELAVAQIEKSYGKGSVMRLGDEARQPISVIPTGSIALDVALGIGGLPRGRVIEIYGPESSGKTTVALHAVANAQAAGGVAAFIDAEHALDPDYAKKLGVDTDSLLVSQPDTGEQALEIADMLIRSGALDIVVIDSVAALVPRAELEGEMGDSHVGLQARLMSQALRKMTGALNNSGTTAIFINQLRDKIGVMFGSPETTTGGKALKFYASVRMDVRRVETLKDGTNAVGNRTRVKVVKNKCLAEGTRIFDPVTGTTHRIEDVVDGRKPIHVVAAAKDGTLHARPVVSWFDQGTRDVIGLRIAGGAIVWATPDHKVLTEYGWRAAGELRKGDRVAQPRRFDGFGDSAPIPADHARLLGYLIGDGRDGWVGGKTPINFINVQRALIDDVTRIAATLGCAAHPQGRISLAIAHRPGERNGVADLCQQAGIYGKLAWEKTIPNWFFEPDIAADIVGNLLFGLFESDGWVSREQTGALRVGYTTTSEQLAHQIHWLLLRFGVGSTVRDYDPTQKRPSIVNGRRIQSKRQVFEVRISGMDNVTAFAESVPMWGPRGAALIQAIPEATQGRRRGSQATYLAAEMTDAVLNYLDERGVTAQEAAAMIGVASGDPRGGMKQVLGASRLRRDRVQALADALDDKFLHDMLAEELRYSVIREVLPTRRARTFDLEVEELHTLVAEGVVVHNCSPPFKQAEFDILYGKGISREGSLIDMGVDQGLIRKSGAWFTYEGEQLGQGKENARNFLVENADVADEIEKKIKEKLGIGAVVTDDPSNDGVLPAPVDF
Arbovirus inh – blocks arbovirus infection | arbovirus infection cell-based antiviral screen | inhibition, % at 10 µM | 200,000 tested, 0.37% active | AID 1251;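 active means inhibition from about 30%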;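 further: bluetongue infection of BSR cells; cell survival read as ATP light after 72 h; 0% = infected wells without compound and 100% = uninfected wells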
Mtb betalactam – beta-lactam sensitization of Mtb H37Rv. M. tuberculosis H37Rv growth with meropenem, percent inhibition; hits of this screen are not shown here. inhibition, % at 25 µM. 330,000 tested, 0.27% active. AID 434955;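 active means about 74% or more and at least 40 points above the plate without the antibiotic, then above 30% in a dose series; inconclusive means first-round hits that could not be retested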;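 further: growth measured after seven days incubation then overnight dye step; 0% = bacteria only wells and 100% = bacteria with antibiotic; twin plates without the antibiotic show which effects depend on it; some results filed as inactive read as strong as hits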
Mtb growth – M. tuberculosis H37Rv growth inhibitors, H37Rv strain (AID 1626); M. tuberculosis H37Rv growth inhibition; higher % means a stronger effect; inhibition, % at 10 µM; hits with a dose series show IC50 in µM; 220,000 tested, 0.95% active;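 active means confirmed in a dose series; inconclusive means inhibition above 80% but not taken into the dose series; inactive means below 80% or under 30% at every dose of the series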;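 further: bacteria incubated seven days before Alamar blue readout; 0% = bacteria only wells and 100% = bacteria with antibiotic wells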
Arbovirus inh repeat – also measured in Arbovirus inh; calls as there; inhibition, %; measured here: 10K subset replicate screen; many hits read low in the repeat;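 first of two repeat runs on a subset; 0% = infected and 100% = uninfected wells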
Active calls of the source: *; ? = inconclusive; nt = not tested or not shown. A portion of the library; count on the stated rates, not on these rows.

SMILES	YopH inh	RecA intein inh	Arbovirus inh	Mtb betalactam	Mtb growth	others
Cn1c(SCC(N)=O)nnc1-c1cnccn1	nt	-2.6	-3	-1	-11%
CCOCCCNC(=S)N1CCC(NC(=O)c2ccco2)CC1	nt	-0.3	-6	-2	-6%
CCOc1ccc(/C=N/Nc2cc(=O)n(C)c(=O)n2C)cc1	7	2.9	-2	-2	-8%
CCNc1nc(NCC)nc(ON=C(C)C)n1	-6	-2.7	-9	12	nt
COc1ccc(NC(=O)CSc2nccn2Cc2ccc(F)cc2)c(OC)c1	nt	3.5	nt	-1	nt
CCOc1ccc(CCNC(=O)c2ccccc2OCc2c(C)noc2C)cc1OCC	nt	0.5	nt	-11	nt
O=C(O)c1ccc(CSc2nc3ccccc3c(=O)n2-c2ccccc2)cc1	nt	0.9	nt	-4	nt
CCN(C(=O)/C=C/c1ccc(OC)cc1)C1CCS(=O)(=O)C1 (stereo not drawn)	nt	-2.1	nt	-2	nt
CC(NC(=O)c1ccccc1SCC(=O)N1CCCC1)c1ccccc1 (stereo not drawn)	nt	-6.1	nt	-15	nt
COc1ccc(Cc2nnc(SC)[nH]c2=O)cc1OC	-38	-0.6	3	28	-12%	Arbovirus inh repeat=2

Among those listed so far, these have four or more nitrogen atoms.
SMILES	YopH inh	RecA intein inh	Arbovirus inh	Mtb betalactam	Mtb growth	others
Cn1c(SCC(N)=O)nnc1-c1cnccn1	nt	-2.6	-3	-1	-11%
CCOc1ccc(/C=N/Nc2cc(=O)n(C)c(=O)n2C)cc1	7	2.9	-2	-2	-8%
CCNc1nc(NCC)nc(ON=C(C)C)n1	-6	-2.7	-9	12	nt

Next structures
SMILES	YopH inh	RecA intein inh	Arbovirus inh	Mtb betalactam	Mtb growth	others
COc1ccccc1Cn1c(=S)[nH]c2cc(C(=O)NCCCN3CCOCC3)ccc2c1=O	nt	4.0	nt	-17	nt
CC1Cc2ccccc2N1C(=O)Cn1nnc(-c2ccccc2NC(=O)C2CCC2)n1 (stereo not drawn)	-13	6.6	-4	-1	1%
CCOC(=O)c1ccccc1NC(=O)COC(=O)CCC(=O)c1ccc(C)cc1	nt	3.2	nt	3	nt
O=C(NC1CCS(=O)(=O)C1)C1CCCC1 (stereo not drawn)	nt	0.6	nt	1	nt
CN(C)CC1CSCCC1(O)c1cccc(Cl)c1 (stereo not drawn)	-19	0.9	-5	-12	4%
Cc1cc(C)c(NC(=O)C2CCCCN2C)c(C)c1 (stereo not drawn)	-35	-0.9	-6	0	0%
CC(=O)c1ccc(NC(=O)C2CCCN(S(=O)(=O)c3ccc(-n4cnnn4)cc3)C2)cc1 (stereo not drawn)	nt	-0.8	nt	9	nt
Cn1c(=O)c2c(nc(N/N=C/c3ccc(OC(=O)c4ccco4)cc3)n2Cc2ccccc2)n(C)c1=O	-28	-1.3	-5	-2	5%
CCOC(=O)C(NC(=O)Nc1ccc(F)cc1F)(Oc1ccc(F)cc1)C(F)(F)F (stereo not drawn)	-3	0.2	-8	-6	4%
Cc1ccc(NS(=O)(=O)c2c(C)[nH]c(C)c2C(=O)N2CCCC2)cc1	nt	-0.8	nt	?	nt
O=C(Nc1cccc2cccnc12)c1ccccc1Cl	nt	5.2	nt	30	nt
Cc1ccc(N=C2NC(=O)CS2)c(C)c1	-15	nt	3	-9	-5%
Cc1ccc2[nH]cc(CCNC(=O)C3CCCO3)c2c1 (stereo not drawn)	nt	-1.0	nt	8	nt
COc1ccc(C(=O)N2CCN=C2SCc2cccnc2)cc1OC	-46	0.4	3	-2	-2%
CCC(C(=O)NCC1CCCO1)N(Cc1ccccc1)C(=O)CNS(=O)(=O)c1ccccc1 (stereo not drawn)	nt	4.0	nt	3	nt
COc1ccc(/C=C/C(O)=C2/C(=O)NC3(C)CC2c2ccccc2O3)c(OC)c1OC (stereo not drawn)	nt	-6.9	-12	21	-15%
CCCCn1nnnc1NCc1ccc(OC)c(OC)c1OC	-40	-0.7	6	-7	-3%
CC1=NN(C(C#N)c2ccccc2C)C(C)(C)C1 (stereo not drawn)	nt	-0.5	8	-8	3%
C=CCn1c(CNC(=O)CCC)nc2ccccc21	-18	-2.1	nt	2	-15%
CSCC[C@H](NC(=O)c1ccco1)c1nnc2ccccn12	nt	-1.0	nt	0	nt
CCOC(=O)Nc1ccc2c(C)cc(=O)oc2c1	3	-2.9	-2	19	-4%
CNS(=O)(=O)c1cccc(C(=O)NCC(c2cccs2)N(C)C)c1 (stereo not drawn)	-23	-2.4	8	-3	-11%
O=C(Cc1ccccc1)NCCN1CCCC1	nt	-0.5	nt	0	-2%
Cc1ccc(C2c3[nH]c4ccccc4c3C[C@H]3C(=O)N(c4ccccc4C(=O)N4CCC[C@H]4C(=O)O)C(=O)N23)cc1 (stereo partly drawn)	nt	-3.4	nt	5	nt
CCC(C)NC(=O)CSc1nc2ccccc2c(=O)n1-c1c(C)n(C)n(-c2ccccc2)c1=O (stereo not drawn)	nt	-1.8	-4	-11	5%
O=C(C1COc2ccccc2O1)N1CCn2c(nc3ccccc32)C1 (stereo not drawn)	-46	-0.6	8	-7	0%	Arbovirus inh repeat=0
O=C(O)c1ccc2c(c1)ncn2C1CCCC1	nt	-0.2	-1	0	-2%
CCn1nc(C)cc1-c1nnc(SCC(=O)Nc2ccccc2)n1CCCOC	nt	1.1	nt	-12	11%
O=C(CSc1nnc(-c2cccnc2)n1Cc1ccco1)c1ccc2ccccc2c1	-37	1.8	9	10	-1%
Cc1cc(NC(=O)c2cc(-c3ccccc3Cl)nc3ccccc23)no1	nt	5.3	nt	18	nt
COc1ccc(-c2nnc(-c3ccc(N)cc3)o2)cc1	-5	-2.6	0	44	-3%
CC1CCc2c(sc3nc(SCC(=O)O)n(-c4ccccc4)c(=O)c23)C1 (stereo not drawn)	nt	1.6	nt	-7	-4%
CCOC(=O)c1nn(-c2cccc(C)c2)c2nc(-c3ccccc3)c(C#N)c(=O)n12	-12	-3.3	-4	13	9%
COc1ccc(O[C@H]2C=C[C@@H](c3ccccc3)O[C@@H]2COC(=O)CC/C(C)=N/OC[C@@H](O)[C@H]2O[C@@H]3OC(C)(C)O[C@@H]3[C@H]2O)cc1	-19	2.1	7	-11	nt
COCC1CCCN(Cc2nc(C(c3ccccc3)c3ccccc3)no2)C1 (stereo not drawn)	nt	4.4	-5	-4	4%
CCNS(=O)(=O)c1ccc(NC(=O)c2cccnc2)cc1	-31	-1.7	-7	?	-9%	Arbovirus inh repeat=3
Oc1ccccc1C1=NN(c2ccccc2)C(c2ccc(F)cc2)C1 (stereo not drawn)	nt	-11	nt	-4	nt
CC(=O)NCC(=O)NC(Cc1ccccc1)C(N)=O (stereo not drawn)	-19	-4.6	4	-7	-9%
O=S(=O)(c1cccc(S(=O)(=O)N2CCC(n3nnc4ccccc43)CC2)c1)N1CCCCC1	-27	2.8	-15	-7	2%
COc1ccccc1C(=O)Nc1ccc2c(c1)nc(CCNC(C)=O)n2C	-7	0.3	-4	-7	-10%
CC(=O)c1cn(-c2ccc([N+](=O)[O-])cc2)c(=O)n(C)c1=O	nt	-2.2	nt	-8	nt
CCOCC(=O)Nc1cccc(Br)c1	9	nt	3	90	0%
CCc1cccc(CN2CCC(CNC(=O)Nc3ccc(Cl)cc3)CC2)c1	nt	-0.6	-28	-10	1%
COCCCNC(=O)c1cc(C)nc2ccc(F)cc12	-12	3.1	13	-3	-2%
COc1ccccc1NC(=O)Nc1cc(C(C)C)ccc1C	nt	0.2	nt	nt	-3%
CN1C(=O)CC(N2CCN(CCN=CC3=C(O)CC(C)(C)CC3=O)CC2)C1=O (stereo not drawn)	0	-0.1	0	8	-8%
CC(=O)OC1c2ccccc2C(=O)N1Cc1ccccc1Cl (stereo not drawn)	-18	3.9	7	-5	1%	Arbovirus inh repeat=1
COc1ccc(C(=O)OC(C)CN2CCN(C)CC2)cc1 (stereo not drawn)	nt	-4.8	nt	0	nt
O=C(N1CCOCC1)N1CCN(S(=O)(=O)c2cccc([N+](=O)[O-])c2)CC1	nt	-4.8	nt	-5	nt
CC(C)c1ccc(NC(=O)CSc2n[nH]c(=O)n2Cc2ccco2)cc1	nt	3.1	nt	1	3%

The list continues.
SMILES	YopH inh	RecA intein inh	Arbovirus inh	Mtb betalactam	Mtb growth	others
CCOC(=O)c1cnc2c(ccc3ccccc32)c1N	nt	0.3	nt	1	nt
COC(=O)c1cccc(COC(=O)c2cccnc2SC)c1	0	1.1	-3	20	5%
Cc1c(C)c2ccc(OCC(=O)Nc3ccccc3C(N)=O)cc2oc1=O	nt	6.1	nt	-8	nt
C=CCN(C(=O)C1CSC2(C)CCC(=O)N12)c1nc(-c2ccccc2)cs1 (stereo not drawn)	nt	9.8	nt	-15	nt
O=C(OC(C(=O)Nc1ccc([N+](=O)[O-])cc1Br)c1ccccc1)c1ccccc1 (stereo not drawn)	nt	3.7	7	13	4%
CCc1ccc(/C=c2\s/c(=C\C(=O)C(C)(C)C)[nH]c2=O)cc1	-3	13	-42	100	2.5µM*
COc1ccc(OC)c(S(=O)(=O)N2CCN(c3c(C)cccc3C)CC2)c1	-36	4.9	2	-8	-2%	Arbovirus inh repeat=7
Cc1ccc(C(=O)Nn2cnnc2)cc1	nt	-2.0	nt	1	nt
Cn1nnnc1SCC1=C(C(=O)O)N2C(=O)C(NC(=O)Cn3nc(C(F)F)cc3C3CC3)C2SC1 (stereo not drawn)	nt	2.2	-5	20	-5%
CCc1ccc(NS(=O)(=O)c2ccc3[nH]cc(C(=O)N(C)Cc4ccco4)c(=O)c3c2)cc1	-35	3.3	-2	-2	-2%
Brc1cnc2ccccc2c1N1CCCCC1	nt	1.7	nt	-4	nt
CC(C)N1CCN(C(=O)c2ccc(OC3CCN(CCc4ccccc4)CC3)cc2)CC1	nt	-4.5	nt	?	nt
CN(C)C(=O)C(=O)c1c(-c2ccccc2)cc2ccccn12	-35	2.5	4	-11	-8%
CS(=O)(=O)N(CC(=O)N/N=C/c1cc([N+](=O)[O-])ccc1Cl)c1ccccc1	-17	-16	0	-5	1%
Cc1ccc(Cl)cc1NS(=O)(=O)N1CCOCC1	nt	-2.7	nt	4	nt
COCCNC(=O)CN(Cc1ccc(Cl)cc1)S(C)(=O)=O	-23	-4.1	0	-11	-2%
COc1ccc2cc(-c3[nH]ncc3CN3CCCCO3)ccc2c1	nt	0.9	-10	12	0%
COC(=O)c1cc(Br)c(=O)n(-c2ccccn2)c1	-45	-5.2	7	0	-9%
CCNC(=O)CSc1nnc(C2CC2)n1-c1ccccc1	-31	1.0	7	1	-14%
Cc1onc(-c2ccccc2Cl)c1C(=O)Nc1ccc(S(=O)(=O)Nc2nccs2)cc1	nt	7.4	-1	6	6%
C=CCNC(=O)C1CCCN(S(C)(=O)=O)C1 (stereo not drawn)	-17	0.5	7	-5	-3%
CCOc1ccccc1C(=O)N(CCC(=O)OC)c1ccccn1	-18	-1.4	12	-12	-5%
CCOC(=O)c1sc(-c2ccc(Cl)cc2Cl)nc1O	nt	-141	nt	39	8%
C=CCc1c(C)nc(SC)nc1Nc1ccc(C)cc1	-31	9.3	-3	84	6%
O=C(Nc1ccc(S(=O)(=O)Nc2ncccn2)cc1)c1ccc(Br)o1	nt	nt	-3	2	-1%
Nc1nc(-c2ccc3ccccc3c2)cs1	nt	-1.5	5	81	68%
O=C(COc1c(Br)cc(Br)c2cccnc12)N1CCCCC1	nt	2.9	-3	6	8%
CCc1ccc(NC(=O)C2CC(=O)Nc3ncnn32)cc1 (stereo not drawn)	-15	-2.1	2	0	-3%
COc1ccc(NC(=S)N(CCc2c(C)[nH]c3ccc(C)cc23)Cc2cccs2)cc1	12	6.7	-15	-1	nt
CCCCCCCCc1nc(SCC(C)=O)n[nH]1	nt	-1.6	nt	3	9%
CCCCCNCc1cccc(Br)c1	-13	1.5	4	nt	-16%
O=C(COC(=O)/C=C/c1ccco1)Nc1ncc(Cl)cc1Cl	-31	-2.9	7	4	-1%
Cc1nn(Cc2ccccc2)c(Cl)c1/C=C/C(=O)OCC(=O)N(C)C1CCS(=O)(=O)C1 (stereo not drawn)	nt	1.7	2	-4	-5%
COc1ccc(Cl)cc1NC(=O)c1cc(-c2ccccc2O)n[nH]1	-38	-0.7	70*	15	12%

No new results follow: an excerpt of the list.
SMILES	YopH inh	RecA intein inh	Arbovirus inh	Mtb betalactam	Mtb growth	others
CCCCCCCCc1nc(SCC(C)=O)n[nH]1	nt	-1.6	nt	3	9%
CCCCCNCc1cccc(Br)c1	-13	1.5	4	nt	-16%
O=C(COC(=O)/C=C/c1ccco1)Nc1ncc(Cl)cc1Cl	-31	-2.9	7	4	-1%
Cc1nn(Cc2ccccc2)c(Cl)c1/C=C/C(=O)OCC(=O)N(C)C1CCS(=O)(=O)C1 (stereo not drawn)	nt	1.7	2	-4	-5%
COc1ccc(Cl)cc1NC(=O)c1cc(-c2ccccc2O)n[nH]1	-38	-0.7	70*	15	12%

High-throughput results (PubChem BioAssay)
